High-throughput results (PubChem)
Menin-MLL FL inh – inhibitors of human menin-MLL interaction, wild-type MLL peptide; 290,000 tested, under 10 active; Fluorescence polarization, fluorescein-MLL peptide displacement from menin; FP activity change, % at 61.4 µM; inconclusive = falling polarisation curve, or a change in total fluorescence; inactive = total fluorescence flat and polarisation flat or rising; no compound was filed as active; the % refers to the polarisation; negative = inhibition;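 further: % of control where 0% means no effect; inhibitors lower the polarisation; unlabelled MLL peptide was the positive control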
gsp antagonist – antagonists of gsp mutant (McCune-Albright syndrome) | Potency, µM (series often up to 76.9 µM), for inactives: at the highest dose activity change, negative = inhibition, most hits filed as inhibitors | 0.4% of 340,000 active | gsp-mutant cells, cAMP HTRF, 30 min; control for the full effect not named in the record; active = falling curve of any shape with a large fitted effect; inconclusive = falling curve, mostly with a smaller effect; inactive = flat or rising curve; cell line not stated here;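 further: intracellular cAMP measured with PDE inhibitor Ro 20-1724 present during compound exposure; potency means the concentration at half of the fitted maximal effect; on the % scale 0 is the no-effect control and ±100 the full control effect; nearly all actives have a fitted effect of over 65% in size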
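Cells in G418 medium, seeded 16-24 h, 37C; buffer exchange to DPBS + 1 mM CaCl2, 0.5 mM MgCl2, 0.05% BSA; cpds in DMSO + […] (300 uM stock), 30 min 37C; HTRF cAMP detection.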
D2 agonist – agonists of human D2 dopamine receptor (beta-arrestin); P14416; DiscoveRx PathHunter D2 beta-arrestin, luminescence, 90 min; 100% = 57 uM dopamine signal; activation, % (concentration not given with the values); 0.084% of 360,000 active; in the data active = activation above about 40%; inconclusive = about 15% to 40%; inactive = below about 15%; further: compound concentration not given in the record; the text of the record calls up to 30% inactive
Target sequence (P14416 whole entry, looked up): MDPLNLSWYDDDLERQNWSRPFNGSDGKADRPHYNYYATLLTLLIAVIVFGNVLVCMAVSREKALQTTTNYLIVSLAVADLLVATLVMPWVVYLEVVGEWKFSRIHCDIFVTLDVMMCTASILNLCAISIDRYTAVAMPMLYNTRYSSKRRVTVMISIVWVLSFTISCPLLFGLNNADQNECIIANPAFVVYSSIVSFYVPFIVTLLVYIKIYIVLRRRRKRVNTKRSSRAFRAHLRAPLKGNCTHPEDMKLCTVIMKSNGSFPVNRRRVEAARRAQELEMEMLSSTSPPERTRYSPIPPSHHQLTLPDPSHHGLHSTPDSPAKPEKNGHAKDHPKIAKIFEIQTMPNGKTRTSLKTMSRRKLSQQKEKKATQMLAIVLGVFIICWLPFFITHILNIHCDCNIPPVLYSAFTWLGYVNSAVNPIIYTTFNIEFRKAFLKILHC
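DiscoveRx PathHunter D2 beta-arrestin cells (2,100/well) attached overnight, then compound-stimulated 90 min at 37 C in HBSS/10 mM HEPES/0.1% Tween-20 buffer; beta-galactosidase complementation read by luminescence after 1 h at ambient temperature. Dopamine 57 uM final (EC100) as control.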
Sfp PPTase inh – blocks B. subtilis Sfp PPTase activity | Potency, µM, for inactives: max response, negative = inhibition, most hits filed as inhibitors | 3.5% of 310,000 active | Biochemical Sfp PPTase activity, qHTS | AID 1490 | Q9F4F7; active means well fitted inhibition curve with a large enough effect; inconclusive means small, poorly fitted or top-dose-only effect, or another doubt; inactive means no such curve, though single readings can be large or run the other way;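 further: the enzyme is Sfp with the accession as filed and its product quenches rhodamine fluorescence; potency means the concentration at half of the fitted maximal effect; 0% = enzyme reaction without inhibitor and -100% = no enzyme wells; top concentration of the series not given in the record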
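Step 1, compound plus 15 nM Sfp-PPTase, 15 min, room temperature. Step 2, add rhodamine-CoA (5 uM) and BHQ-2-YbbR (12.5 uM). Step 3, read 525/598 nm fluorescence at 0 and 30 min.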
PINK1 modulator – modulators of PINK1 expression; PINK1 immunofluorescence, high-content cytometry, 24 h; Potency, µM (highest dose often 76.6 µM), without a hit: top-dose activation (PINK1 increase), actives largely listed as activators; 0.2% of 410,000 active; AID 624263; active = well fitted activation curve with a large enough effect; inconclusive = small, poorly fitted or top-dose-only effect; inactive = flat fitted curve, though single readings scatter; cell line not stated here;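 further: potency means the concentration at half of the fitted maximal effect; % of control where 0% means no effect; nearly all actives have a fitted effect of over 65% in size; a mitochondrial uncoupler was the plate control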
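Stable cell line, 250 cells/well, 12 h attachment; compounds pinned at 5 concentrations, 24 h; CCCP control. Fixed with nuclear dye, primary antibodies 12 h at 10 degrees C, secondary plus cell stain; laser-scanning cytometer read.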
ClpP mod – qHTS Assay for Activators of ClpP. purified B. subtilis ClpP, FRET peptide cleavage, 20 min. Potency, µM (top dose mostly 57.5 µM), for the others: at the top dose activity change, negative = active. 1.9% of 340,000 active. AID 651965, 2013; active = well fitted falling curve with a large enough effect; inconclusive = small, poorly fitted or top-dose-only effect; inactive = no such curve, though single readings can be large or run the other way; further: potency means the concentration at half of the fitted maximal effect; the source files actives as falling curves though it sought activators and does not explain the sign; nearly all actives have a fitted effect of over 65% in size; many hits overshoot -100%
Target sequence (P80244 whole entry, looked up): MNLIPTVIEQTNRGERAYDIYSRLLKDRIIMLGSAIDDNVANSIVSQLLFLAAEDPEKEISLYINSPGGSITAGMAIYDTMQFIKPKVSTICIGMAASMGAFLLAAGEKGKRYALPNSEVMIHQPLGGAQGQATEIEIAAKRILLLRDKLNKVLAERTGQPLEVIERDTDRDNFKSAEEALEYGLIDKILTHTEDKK
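Buffer: 100 mM Tris/HCl pH8, 100 mM KCl, 0.05% low protease BSA, 2.5% glycerol, 0.01% Tween-20. ClpP 10 microg/mL final; 20 min RT; delta FRET normalized to ADEP and DMSO controls.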
gsp ag – activates gsp, the McCune-Albright syndrome mutation | gsp mutant cells, cAMP HTRF, 30 min; control for the full effect not named in the record | Potency, µM (series often up to 76.9 µM), inactives show at the highest dose activation (cAMP increase), actives largely listed as activators | 0.13% of 340,000 active | AID 624287; active = well fitted activation curve with a large enough effect; inconclusive = small, poorly fitted or top-dose-only effect, or another doubt; inactive = no such curve, though single readings can be large or run the other way; cell line not stated here;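 further: phosphodiesterase inhibitor Ro 20-1724 added with compounds to block cAMP breakdown; potency means the concentration at half of the fitted maximal effect; nearly all actives have a fitted effect of over 60% in size; about a fifth of the inactives were tested at one dose only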
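Cells in DMEM/10% FBS with G418 were pretreated with compounds in DMSO plus […] (300 uM stock) for 30 min at 37C. cAMP was measured by HTRF (cAMP-d2 plus anti-cAMP antibody-K) after 30 min at room temperature.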
* hit, by the source's call; ? = inconclusive; . = no result given; & = joins results of further samples; [ ] = remark or other dose. Not a hit list; about 5.1% have a hit in one of these screens.

SMILES	Menin-MLL FL inh	gsp antagonist	D2 agonist	Sfp PPTase inh	PINK1 modulator	ClpP mod	gsp ag
CN1CCN(c2ncc3nc(-c4ccccc4)c(=O)n(-c4ccccc4)c3n2)CC1	1.3	.	.	-3%	-0.9%	.	.
COCCN1C=C(C(=O)OC)C(c2ccc(Cl)cc2)C(C(=O)OC)=C1	-6.5	17%	-1.3	-3%	5.2%	.	-23%[15.4 µM]
Cc1ccccc1NC(=O)Cc1nc(COC(=O)c2cc(Br)ccc2O)cs1	.	-25%	-1.6	.	9.7%	3.1%	-38%[inhibitor]
COc1ccc(C(=O)Nc2ccnn2C2CCN(Cc3cnn(C)c3)CC2)cc1	-2.5	9%	6.4	5%	1.1%	-1.8%	9%
COc1ccc(OC)c(NC(=O)c2oc3ccccc3c2NC(=O)C2CC2)c1	0.2	-6%	2.7	24%	11%	7.0%	?
COc1ccc(Oc2nc(-c3ccccn3)ncc2OC)cc1	0.0	5%	-6.3	-18%	1.0%	.	17%
COC(=O)c1sc(NC(=O)COc2ccc(C)cc2)nc1C	-1.3	-7%	-3.1	11%	6.2%[38.3 µM]	0.3%	-32%[inhibitor]
CC(=O)C[C@H]1c2cc(C(F)(F)F)ccc2S(=O)(=O)N1Cc1ccccc1	.	-3%	-1.9	.	-0.2%	0.2%&4.1%	-15%
O=C(COC(=O)c1n[nH]c2ccccc12)c1ccc(F)c(F)c1	.	-6%	-1.1	.	12%	.	-26%[15.4 µM]
C[C@@H](C(=O)NCc1ccccn1)[C@H]1C[C@]1(C)[C@H](NC(=O)OCc1ccccc1)c1ccccc1	1.3&-0.5	?	4.1	?	2.3%	0.8%	.
CCOC(=O)c1oc2cccc(O)c2c1CN1CCOCC1	2.9	6%	-2.6	2%	-4.3%	-0.6%	-3%
Cn1c(=O)n(C/C=C/c2ccccc2)c(=O)c2c1nc1n2CCCN1c1ccc(F)cc1	-5.1	-16%	-3.7	-13%	1.2%	-16%	0%
CC(C)[C@@H](N)C(=O)NCC1CCC(C(=O)N[C@@H](Cc2ccccc2)C(=O)O)CC1 (stereo partly specified)	-1.5	16%	-4.2	17%	-1.4%	-10%	14%[15.4 µM]
CCC(C)[C@H](NS(=O)(=O)c1ccc(C)cc1)C(=O)N1CCC(C(=O)N2CCC(C(=O)OC)CC2)CC1 (stereo partly specified)	-10	-8%	-8.1	-7%	-0.9%	-0.6%	.
O=c1[nH]c(C(Cl)Cl)nc2sc3c(c12)CCN(Cc1ccccc1)C3	5.0	-25%	4.8	-11%	2.9%	-0.3%	7%[15.4 µM]
Cc1ccc(OCCNC(=O)CNC(=O)c2ccc(C)c(C)c2)cc1	.	9%	0.3	.	0.2%	-2.6%	?
Cc1nnc(NC2(C(F)(F)F)C(=O)Nc3c2c(=O)n(C)c(=O)n3C)s1 (stereo unspecified)	0.2	5%	-2.4	2%	4.2%	-8.6%	-58%[inhibitor]
Cc1ccc(S(=O)(=O)NC(=O)C2(C)CCN2C(=O)Cc2ccc(Cl)cc2Cl)cc1 (stereo unspecified)	.	.	-3.8	.	1.0%	-2.8%	.
O=C(CCN1C(=O)COc2ccccc21)NCc1ccco1	-1.4	3%	-0.7	-4%	.	0.1%	?
CCOC(=O)c1ccccc1-c1cn2cc(Cl)ccc2n1	0.5	-1%	-3.0	18%	4.9%	.	12%[15.4 µM]
CC(C)NC(=O)N(C)C[C@@H]1Oc2ccc(NC(=O)Nc3ccc(C(F)(F)F)cc3)cc2CC(=O)N([C@H](C)CO)C[C@@H]1C	.	11%	1.0	.	4.4%	1.2%	-1%
CCCN1CCC(NC(=O)CC2C(=O)NCCN2Cc2cccc(OC)c2)CC1 (stereo unspecified)	.	7%	-2.4	13%	0.2%	-6.6%	28%
COc1cc(Nc2c3ccccc3nc3ccccc23)cc(OC)c1OC	-9.9	-14%	1.9	-7%	-2.6%	.	-5%[15.4 µM]
O=C(CN1CCN(Cc2ccccc2)CC1)N=Nc1c(O)[nH]c2ccccc12	6.0	-3%	-4.6	6%	4.9%	-1.8%	8%
COc1ccc(C)cc1NC(=O)CSCc1ccccc1C	-1.0	-7%	3.6	3%	3.2%	0.6%	-10%[15.4 µM]
COc1ccc(/C=C\C(=O)c2c(O)ccc3c(C)cc(=O)oc23)cc1OC	-2.0	8%	-1.8	-2%	-0.9%&0.7%	0.8%&-1.9%	-26%
CCCCN(C)Cc1cc(=O)oc2cc3c(cc12)CCCC3	5.3	-28%	-5.6	-6%	?	14µM*	-4%[15.4 µM]
COC(=O)C1=C(C(=O)OC)[C@@H]2N(C)c3ccc(OC)cc3[C@@]23C[C@@H](C(=O)OC)N(C(=O)c2cccs2)C3=N1	7.2	-3%	1.0	11%&29%	0.5%	-0.6%	.
CCn1c(-c2ccccc2)c(C(=O)CC#N)c2ccccc21	2.0	7%	-0.7	8%	0.0%	.	-31%[inhibitor]
S=C1NCN(Cc2ccco2)CN1Cc1ccco1	1.6	-7%	-2.3	8%	-0.7%	1.9%	-31%[inhibitor]
OCCOc1ccc(CN2CCCC(N3CCN(c4ccc(F)cc4)CC3)C2)cc1 (stereo unspecified)	-2.1	16%	-0.4	7%	0.5%	1.0%	-29%
O=C(Nc1ccc2c(c1)OCO2)C1CCCN(c2nc3ccccc3s2)C1 (stereo unspecified)	3.2	?	-2.8	-7%	1.5%[38.3 µM]	-1.2%	-50%[inhibitor]
O=C(NCC(=O)N(c1ccc(F)cc1)C(C(=O)NC1CCCCC1)c1ccncc1)c1ccco1 (stereo unspecified)	-1.5	9%	-1.4	10%	-1.7%	.	-12%[15.4 µM]
O=C(CN1CCCC1)N/N=C/c1c(O)ccc2ccccc12	?	5%	4.7	2%	7.4%	-0.3%	-4%
COc1ccccc1CC(=O)N1CCN(C(=O)c2ccco2)CC1	.	4%	-4.6	1%	-0.9%	0.0%	22%
Cn1ccnc1SCC(=O)Nc1cccc(S(=O)(=O)N2CCCCCC2)c1	0.8	.	3.1	-1%	0.1%	.	8%[15.4 µM]
CCCC(=O)NNC(=O)Nc1ccccc1	0.2	7%	0.6	38%[activator]	0.3%[38.3 µM]	0.5%	0%
CCOc1ccc(NS(=O)(=O)c2ccc3c(c2)n(C)c(=O)n3C)cc1	-6.1	-4%	11	-1%	1.9%	-2.6%	-14%
Cc1ccccc1N1CCN(C(=O)C2CCC(=O)N(C3CCCC3)C2)CC1 (stereo unspecified)	-0.6	7%	2.2	9%	0.3%	-0.2%	43%
Cc1cc(C(=O)CSc2ccc(Cl)cc2)cc(C)c1OC(=S)N(C)C	0.0	-12%	-3.5	-10%	2.6%	-3.7%	-21%
COc1ccc(OCc2nnc(SCC(=O)Nc3nnc(C4CC4)s3)n2C)cc1	-4.2	-5%	-1.1	2%	0.7%	.	21%[15.4 µM]
O=C(Nc1cccc(NC(=O)c2ccccc2Cl)c1)c1ccc([N+](=O)[O-])o1	1.3	40µM*	?	8%	-0.3%	-0.7%	-20%
Cc1cc(C)n2nc(SCn3nnc4ccccc4c3=O)nc2n1	3.3	22%	-2.9	4%	3.4%[38.3 µM]	2.0%	?
CN(C)c1ccc(/C=N/NC(=O)CNC(=O)c2ccc3c(c2)OCCO3)cc1	2.5	-8%	-3.4	3%	-1.1%	3.6%	-22%
Oc1ccc2ccccc2c1CNc1ccc(Br)cc1	-8.4	1%	4.5	-15%	2.1%	53%	?
O=[N+]([O-])c1ccccc1CNc1ccc(F)c(Cl)c1	9.5	-16%	-0.9	-16%	16%	4.7%	-11%
CS(=O)(=O)N(CC(=O)N1CCCCCC1)c1cccc(F)c1	1.1	3%	-0.3	9%	-0.2%	0.1%	2%[15.4 µM]
COC(=O)C1=C(C)N(C)C(=O)NC1c1ccc([N+](=O)[O-])o1 (stereo unspecified)	2.5	-11%	2.3	23%	1.1%	0.7%	-4%
CC(=O)Nc1ccc(OC(F)(F)Cl)cc1	-1.2	-2%	-3.4	8%	-0.7%	0.8%	-27%
CC(NC(=O)c1cccc(S(=O)(=O)N(C)C)c1)c1nc2ccccc2[nH]1 (stereo unspecified)	0.7	2%	-4.1	-17%	-0.6%	-2.7%	-19%[15.4 µM]
CN(C)c1ccc(C(=S)N2CCOCC2)cc1	5.6	-1%	-3.7	1%	2.1%	0.4%	2%
COc1ccc(OCc2nnc(SCC(=O)NC3CC4CCC3C4)o2)cc1 (stereo unspecified)	?	-2%	-1.6	13%	-1.3%	.	-6%[15.4 µM]
C=CCN(CC=C)Cc1c(C)[nH]c2c(C)c(C)ccc2c1=O	4.4	3%	-3.7	1%	0.0%	.	4%[15.4 µM]
Cc1cc(C)nc(N/N=C/c2cccc([N+](=O)[O-])c2)n1	-1.0	-1%	0.4	-9%	1.4%	.	-11%
COc1ccc(-n2c(Cc3cccn3C)nnc2SCC(=O)Nc2cccc(F)c2)cc1	5.9	-19%	-1.9	-15%	0.0%	3.5%	-9%
CCOc1ncccc1C(=O)OCC(=O)NCc1ccc2c(c1)OCO2	-0.5	.	4.8	11%	-1.7%	.	-1%[15.4 µM]
CC1(C)CC(=O)C=C(Nc2ccccc2N)C1	0.4	2%	-1.4	13%	0.8%	-22%	-1%[15.4 µM]
CCCCNC(=O)C1(C)CCCCCN1Cc1cc2ccccc2o1 (stereo unspecified)	.	.	-1.6	.	5.9%	0.9%	.
CC(NC(=O)c1ccco1)C(=O)N1CCCCC1 (stereo unspecified)	.	23%	-6.2	6%	-0.3%	1.3%	3%
O=C(Oc1ccc(Cl)c2cccnc12)c1cccnc1	4.3	17%	1.0	28%	4.9%	-1.1%	2%[15.4 µM]
CCCc1ccc(OC(=O)c2ccc(O)cc2Cl)cc1	-0.4	-15%	2.6	1%	?	.	-24%
